Bioassay records deposited in PubChem BioAssay by National Center for Advancing Translational Sciences (NCATS).
CtBP-E1A blk: inhibitors of CtBP/E1A interaction; activity change, % (no concentration beside the values); 0.49% of 340,000 active; AlphaScreen GST-E1A/His-CtBP binding, 1536-well; active compounds read low; control for the full effect not named in the record; in the data active means activity change below about -65%; inconclusive means about -30% to -65%; inactive means above about -30%; note: % is set by controls: 0 for no effect and ±100 for the full control effect
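Protein mix (5X: 125 nM each GST-E1A, His-CtBP) was incubated with pinned compound 2 h at 37 deg C in dark, in 50 mM Tris pH 8.0 buffer with 300 mM NaCl. Glutathione donor and nickel acceptor beads followed; AlphaScreen signal read after 1 h.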
Six1-Eya2 blk: blocks human Six1 binding to Eya2 | Q15475+O00167 | activity change, % (test concentration not listed) | AlphaScreen GST-Six1/His-Eya2 binding, biochemical; active compounds read low; control for the full effect not named in the record | 0.56% of 360,000 active; in the data active = activity change below about -65%; inconclusive = about -30% to -65%; inactive = above about -30%; note: % is set by controls: 0 for no effect and ±100 for the full control effect
Target sequence (O00167 whole entry, looked up): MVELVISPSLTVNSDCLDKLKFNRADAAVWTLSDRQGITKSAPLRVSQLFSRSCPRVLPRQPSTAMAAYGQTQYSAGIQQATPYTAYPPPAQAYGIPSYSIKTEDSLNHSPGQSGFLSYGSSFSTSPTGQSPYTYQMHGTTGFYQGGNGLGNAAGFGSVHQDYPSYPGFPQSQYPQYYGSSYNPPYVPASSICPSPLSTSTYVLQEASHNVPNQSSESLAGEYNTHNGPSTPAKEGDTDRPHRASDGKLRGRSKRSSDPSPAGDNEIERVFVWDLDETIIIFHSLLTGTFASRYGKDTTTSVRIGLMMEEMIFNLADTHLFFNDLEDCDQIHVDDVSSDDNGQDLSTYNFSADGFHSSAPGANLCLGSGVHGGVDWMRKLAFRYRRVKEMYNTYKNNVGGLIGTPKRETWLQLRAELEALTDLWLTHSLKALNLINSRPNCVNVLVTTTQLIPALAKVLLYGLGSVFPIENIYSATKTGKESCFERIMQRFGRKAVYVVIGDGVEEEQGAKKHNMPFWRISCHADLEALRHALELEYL
Target sequence (Q15475 whole entry, looked up): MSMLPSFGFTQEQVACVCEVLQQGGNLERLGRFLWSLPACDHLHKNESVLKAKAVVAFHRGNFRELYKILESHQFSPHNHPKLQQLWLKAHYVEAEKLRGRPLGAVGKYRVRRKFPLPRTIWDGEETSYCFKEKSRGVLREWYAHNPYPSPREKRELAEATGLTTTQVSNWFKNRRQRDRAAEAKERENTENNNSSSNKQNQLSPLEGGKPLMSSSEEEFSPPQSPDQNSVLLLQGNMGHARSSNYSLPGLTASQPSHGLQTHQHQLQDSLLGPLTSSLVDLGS
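AlphaScreen with GST-Six1 and His-Eya2 (5X mix: 250 nM and 500 nM), glutathione donor and nickel acceptor beads; buffer 50 mM Tris pH 8.0, 300 mM NaCl, 1 mM TCEP; 1 h at 37 C in the dark.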
gsp antag: antagonizes gsp, the McCune-Albright syndrome mutation. gsp-mutant cells, cAMP HTRF, 30 min; control for the full effect not named in the record. Potency, µM (doses to about 76.9 µM), without a hit: top-dose activity change, negative = inhibition, actives largely listed as inhibitors. 0.4% of 340,000 active; active = falling curve of any shape with a large fitted effect; inconclusive = falling curve, mostly with a smaller effect; inactive = flat or rising curve; cell line not stated here;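 note: intracellular cAMP measured with PDE inhibitor Ro 20-1724 present during compound exposure; potency is the fitted concentration of half-maximal effect; % is set by controls: 0 for no effect and ±100 for the full control effect; nearly all actives have a fitted effect of over 65% in size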
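Cells, 2000/well, grown 16–24 h in DMEM 10% FBS with 0.5 mg/ml G418, then compounds plus […] (300 uM addition stock), 30 min at 37C. cAMP read by HTRF (cAMP-d2 and anti-cAMP antibody-K in lysis buffer) after 30 min RT.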
gsp agonist: agonists of gsp mutant (McCune-Albright syndrome); gsp mutant cells, cAMP HTRF, 30 min; control for the full effect not named in the record; Potency, µM (highest dose often 76.9 µM), inactives show at the highest dose activation (cAMP increase), hits mostly activators; 0.13% of 340,000 active; AID 624287; active = well fitted activation curve with a large enough effect; inconclusive = small, poorly fitted or top-dose-only effect, or another doubt; inactive = no such curve, though single readings can be large or run the other way; cell line not stated here;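 note: phosphodiesterase inhibitor Ro 20-1724 added with compounds to block cAMP breakdown; potency is the fitted concentration of half-maximal effect; nearly all actives have a fitted effect of over 60% in size; about a fifth of the inactives were tested at one dose only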
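Cells stably selected in G418 were plated at 2000/well, grown 16-24 hr, then given compounds in DMSO with the PDE inhibitor […] (300 uM solution added) for 30 min at 37C; cAMP was read by HTRF.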
D2 ag: agonists of human D2 dopamine receptor (beta-arrestin) | P14416 | DiscoveRx PathHunter D2 beta-arrestin, luminescence, 90 min; 100% = 57 uM dopamine signal | activation, % (test concentration not listed) | 0.084% of 360,000 active | AID 624465; in the data active = activation above about 40%; inconclusive = about 15% to 40%; inactive = below about 15%; note: compound concentration not given in the record; the text of the record calls up to 30% inactive
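Agonist mode: compounds alone added to overnight-plated D2 PathHunter cells for 90 min at 37 C, with 57 uM final dopamine (EC100) defining full response. Beta-arrestin recruitment detected by chemiluminescent reagent, read after 1 h at ambient temperature.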
D2 PAM: positive allosteric modulators of human D2 dopamine receptor. 0.23% of 360,000 active. P14416. DiscoveRx D2 beta-arrestin cells, luminescence, 90 min; 100% = 57 uM dopamine signal. potentiation, % (test concentration not listed); active = potentiation of 50% or more; inconclusive = 30% to 50%; inactive = 30% or less;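 note: compound concentration not given in the record; tested on top of an EC20 dose of dopamine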
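D2 cells co-treated with compound plus 50 nM dopamine (EC20) for 90 min at 37 deg C to detect potentiation. Beta-arrestin recruitment was read as enzyme-fragment luminescence after 1 h at ambient temperature. Full response was set by 57 uM dopamine.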
Starred values were filed as active, the others as inactive; [ ] = dose if it differs, or a comment. Rows were taken by chance. Share with any hit: about 1.4%.

`CC(=O)c1cccc(NC(=O)N2CCCC2C(=O)Nc2cc(C)ccc2C)c1` (stereo not given) gave CtBP-E1A blk 1, Six1-Eya2 blk 0, gsp antag 10%, gsp agonist 25%, D2 ag -1.8 and D2 PAM -7.
`CN1CCN(C(=O)CSc2ccc(Cl)cc2)CC1` gave CtBP-E1A blk -10, Six1-Eya2 blk 6, gsp agonist -13%[15.4 µM], D2 ag inconclusive and D2 PAM 6.
Screening O=C1CSc2ccc(C(=O)NCc3ccccn3)cc2N1 returned CtBP-E1A blk 0, Six1-Eya2 blk -6, gsp antag 1%, gsp agonist 19%, D2 ag -1.9 and D2 PAM -9.
O=S(=O)(Nc1cccc(-n2cnnn2)c1)c1cc(Cl)ccc1Cl was read as Six1-Eya2 blk -4, gsp antag inconclusive, gsp agonist inconclusive, D2 ag 6.0 and D2 PAM 1.
For CCN(CC)S(=O)(=O)c1ccc(Oc2ccccc2)c(N)c1 the results were CtBP-E1A blk 0, Six1-Eya2 blk -4, gsp antag 5%, gsp agonist 6%, D2 ag -2.3 and D2 PAM -1.
CCCNC(=O)CNC(=S)N(Cc1ccccc1F)C1CCCCC1 was read as CtBP-E1A blk 0, Six1-Eya2 blk -2, gsp antag -5%, gsp agonist 6%[15.4 µM], D2 ag 1.0 and D2 PAM 4.
O=C(Nc1nc2ccccc2[nH]1)c1cc(F)cc(F)c1 was read as CtBP-E1A blk 0, Six1-Eya2 blk 0, gsp antag -8%, gsp agonist 5%, D2 ag -3.8 and D2 PAM -4.
Screening N#Cc1csc(CCNC(=O)c2ccccc2)n1 returned CtBP-E1A blk 0, Six1-Eya2 blk 6, gsp agonist -9%, D2 ag -6.3 and D2 PAM -5.
Screening O=C(c1ccco1)N1CCN(C(c2ccccc2)c2nnnn2Cc2cccs2)CC1 (stereo not given) returned CtBP-E1A blk -1, Six1-Eya2 blk 0, gsp antag -13%, gsp agonist -21%, D2 ag -2.8 and D2 PAM -9.
CC(=O)Nc1cccc(-c2ccnc3c2CC(C(=O)NCCN(C)C)O3)c1 (stereo not given) was read as CtBP-E1A blk 2, Six1-Eya2 blk 6, D2 ag -4.2 and D2 PAM -13.
Screening O=C(CSc1nc2ccccc2c(=O)n1-c1ccccc1)N1CCCc2ccccc21 returned CtBP-E1A blk -30, Six1-Eya2 blk -16, gsp antag 2%, gsp agonist -4%[15.4 µM], D2 ag -5.8 and D2 PAM -10.
C=CCC[C@@H](Cc1ccc(F)cc1)C(=O)OC[C@@H](Cc1c[nH]c2ccccc12)NC(=O)[C@@H](CC=C)CC(=O)N(CCO)Cc1ccccc1 was read as CtBP-E1A blk -10, Six1-Eya2 blk -12, gsp antag inconclusive and D2 ag 3.7.
For CCc1sc(NC(=O)COC)nc1-c1ccccc1 the results were CtBP-E1A blk -8, Six1-Eya2 blk -2, gsp antag -6%, gsp agonist -35%[inhibitor], D2 ag 1.8 and D2 PAM -3.
COc1ccc(C(=O)NC23CC4CC(CC(C4)C2)C3)cc1OC was read as CtBP-E1A blk 0, Six1-Eya2 blk 3, gsp antag -10%, gsp agonist -6%, D2 ag -4.3 and D2 PAM -2.
For O=C(NNC(=O)c1cccs1)c1ccco1 the results were CtBP-E1A blk 1, Six1-Eya2 blk 7, gsp agonist 3%[15.4 µM], D2 ag 0.1 and D2 PAM 2.
CC(C)(C)OC(=O)C[C@H]1C/C=C\C[C@@H](CC(=O)NCCO)C(=O)NC[C@@H](c2ccccc2)OC1=O was read as CtBP-E1A blk -1, Six1-Eya2 blk 7, gsp antag 2%, D2 ag 0.8 and D2 PAM -13.
`O=c1oc2ccc(C#CC3(O)CCCCC3)cc2cc1-n1cc(-c2ccccn2)nn1` gave CtBP-E1A blk -4, Six1-Eya2 blk -2, gsp antag -4%, gsp agonist -37%[inhibitor], D2 ag -0.1 and D2 PAM 0.
For Cc1[nH]c2ccccc2c1C(=O)CSCC(=O)O the results were CtBP-E1A blk 12, Six1-Eya2 blk 0, gsp antag 8%, gsp agonist -23%, D2 ag -2.5 and D2 PAM -4.
`Cc1ccc(S(=O)(=O)N2CCCC(CCC(=O)NCc3ccccc3F)C2)s1` (stereo not given) gave CtBP-E1A blk 1, Six1-Eya2 blk 2, gsp antag -8%, gsp agonist -7%, D2 ag -5.0 and D2 PAM -4.
For CCN(CC)C(=O)c1csc(COCCO)n1 the results were CtBP-E1A blk -2, Six1-Eya2 blk 4, D2 ag -6.4 and D2 PAM -19.
Screening CNc1ncc(C(=O)c2ccc(Br)cc2)s1 returned CtBP-E1A blk 1, Six1-Eya2 blk 11, gsp antag -4%, gsp agonist inconclusive, D2 ag 5.6 and D2 PAM -3.
Screening O=C(Nc1cccc(S(=O)(=O)NC2=NCCC2)c1)c1cc(Cl)ccc1[N+](=O)[O-] returned CtBP-E1A blk 5, Six1-Eya2 blk 3, gsp antag 12%, gsp agonist -5%[15.4 µM], D2 ag 3.9 and D2 PAM 24.
`COc1ccccc1CCN1CCCC(CN(C)C(=O)c2ccco2)C1` (stereo not given) gave CtBP-E1A blk 2, Six1-Eya2 blk -2, gsp antag -6%, gsp agonist 14%, D2 ag -2.4 and D2 PAM -27.
Screening O=C1NC(=Nc2ccccc2)S/C1=C\c1cccnc1 returned Six1-Eya2 blk 7, gsp antag -10%, gsp agonist -10%, D2 ag -8.0 and D2 PAM 2.
`CCOC(=O)NC(CC(=O)O)c1ccc(OC)c(OC)c1` (stereo not given) gave CtBP-E1A blk -4, Six1-Eya2 blk 6, gsp antag 9%, gsp agonist 0%, D2 ag 1.3 and D2 PAM 2.
Cc1ccc(-c2cnc(SCCNC(=O)c3ccco3)[nH]2)cc1 was read as CtBP-E1A blk -11, Six1-Eya2 blk 1, gsp antag 3%, gsp agonist -4%[15.4 µM], D2 ag -2.2 and D2 PAM -12.
CC(=O)Nc1ccc(NC(=O)CCCCCn2nnc3ccccc3c2=O)cc1 was read as CtBP-E1A blk -3, Six1-Eya2 blk 8, gsp antag 9%, gsp agonist 3%, D2 ag -3.1 and D2 PAM 4.
O=C(CSc1nc2ccccc2s1)N/N=C/c1ccco1 was read as CtBP-E1A blk -9, Six1-Eya2 blk 1, gsp antag 9%, gsp agonist -3%[15.4 µM], D2 ag -4.9 and D2 PAM -7.
For O=Cc1cn(-c2ccccc2)nc1-c1ccncc1 the results were CtBP-E1A blk 5, Six1-Eya2 blk -2, gsp antag -3%, gsp agonist 17%, D2 ag 1.4 and D2 PAM -3.
CSCCC(NS(=O)(=O)c1ccc(Cl)cc1)C(=O)N1CCN(c2ccccc2)CC1 (stereo not given) was read as CtBP-E1A blk 5, Six1-Eya2 blk 3, gsp antag -23%, gsp agonist -14%, D2 ag -0.4 and D2 PAM -18.
Screening O=c1cc(-c2ccccc2)oc2ccc3ccccc3c12 returned CtBP-E1A blk -2, Six1-Eya2 blk 11, gsp agonist inconclusive, D2 ag 0.9 and D2 PAM -13.
Screening COC(=O)c1c(C)cc(C)n2c1nc1ccccc12 returned CtBP-E1A blk 1, Six1-Eya2 blk 5, gsp antag 1%, gsp agonist inconclusive, D2 ag -1.9 and D2 PAM -17.
Screening CSc1nnc(CCCCCNC(=O)OC(C)(C)C)o1 returned CtBP-E1A blk 1, Six1-Eya2 blk -11, gsp antag 4%, gsp agonist -19%[15.4 µM], D2 ag -2.7 and D2 PAM -7.
For O=C(c1ccccc1)c1ccc(C(=O)N2CCN(c3ccc(O)cc3)CC2)cc1 the results were CtBP-E1A blk -5, Six1-Eya2 blk -4, gsp antag 2%, gsp agonist 8%, D2 ag inconclusive and D2 PAM 2.
Screening CCN(CC(=O)Nc1cc(Cl)ccc1C)C(=O)CCS(=O)(=O)c1ccc(C)cc1 returned CtBP-E1A blk 2, Six1-Eya2 blk 11, gsp antag -1%, gsp agonist 4%[15.4 µM], D2 ag -5.5 and D2 PAM -33.
`Cc1nnc(C)n1/N=C/C=C/c1ccccc1` gave CtBP-E1A blk 0, Six1-Eya2 blk 2, gsp antag 4%, gsp agonist -25%, D2 ag -2.3 and D2 PAM -1.
CN(C1CCCCC1)S(=O)(=O)c1ccc2c(c1)c(=O)c(C(=O)O)cn2C was read as CtBP-E1A blk -6, Six1-Eya2 blk 1, gsp agonist 0%, D2 ag -2.6 and D2 PAM -7.
`Cc1csc(SCC(=O)Nc2nc(-c3ccccc3)cs2)n1` gave CtBP-E1A blk 4, Six1-Eya2 blk 0, gsp antag -4%, gsp agonist -2%, D2 ag 1.3 and D2 PAM -8.
`CC(C)=CCC/C(C)=C/CNC(=O)C[C@H]1C[C@H](C(=O)N2CCOCC2)[C@@]2(C)c3[nH]c4cc(CCC(=O)N(C)C)ccc4c3CCN2C1=O` gave CtBP-E1A blk -1, Six1-Eya2 blk -2, gsp antag -1%, D2 ag -0.9 and D2 PAM -5.
Screening CN(C1=C(N2CCCCC2)C(=O)c2ccccc2C1=O)c1ccccc1 returned CtBP-E1A blk -2, Six1-Eya2 blk -83*, gsp antag -28%, gsp agonist -55%[inhibitor], D2 ag -1.8 and D2 PAM -6.

Part of the list above in order of molecular weight, ascending.
Screening COC(=O)c1c(C)cc(C)n2c1nc1ccccc12 returned CtBP-E1A blk 1, Six1-Eya2 blk 5, gsp antag 1%, gsp agonist inconclusive, D2 ag -1.9 and D2 PAM -17.
Screening O=C1CSc2ccc(C(=O)NCc3ccccn3)cc2N1 returned CtBP-E1A blk 0, Six1-Eya2 blk -6, gsp antag 1%, gsp agonist 19%, D2 ag -1.9 and D2 PAM -9.
`CC(=O)c1cccc(NC(=O)N2CCCC2C(=O)Nc2cc(C)ccc2C)c1` (stereo not given) gave CtBP-E1A blk 1, Six1-Eya2 blk 0, gsp antag 10%, gsp agonist 25%, D2 ag -1.8 and D2 PAM -7.

Next part
For CCc1ccc(N(C(=O)c2ccco2)C(C(=O)NC2CCCC2)c2ccncc2)cc1 (stereo not given) the results were CtBP-E1A blk -6, Six1-Eya2 blk -14, gsp antag -46%, gsp agonist 9%[15.4 µM], D2 ag 2.9 and D2 PAM 0.
For CC(C)(CNC(=O)c1cc(-c2ccc(Cl)s2)nc2ccccc12)N1CCOCC1 the results were CtBP-E1A blk 2, Six1-Eya2 blk 5, gsp antag -6%, gsp agonist 15%[15.4 µM], D2 ag 2.5 and D2 PAM -2.
Screening COC(=O)CSc1nc(C2CC2)cc(C(F)(F)F)c1C#N returned CtBP-E1A blk 21, Six1-Eya2 blk 31, gsp antag inconclusive, gsp agonist -26%, D2 ag -3.4 and D2 PAM -3.
`COC(=O)N/N=C\c1ccc(OC/C=C/c2ccccc2)c(OC)c1` gave CtBP-E1A blk 2, Six1-Eya2 blk 1, gsp antag -11%, gsp agonist -2%, D2 ag -3.0 and D2 PAM 5.
`CC(=O)Oc1ccc2c(c1)CCC1C2CCC2(C)C(OC(C)=O)CCC12` (stereo not given) gave CtBP-E1A blk 8, Six1-Eya2 blk 0, gsp antag -3%, D2 ag -3.4 and D2 PAM -48.
`OCC(O)C1OC(c2ccccc2)OC(CO)C1O` (stereo not given) gave CtBP-E1A blk 1, Six1-Eya2 blk 5, gsp antag 11%, D2 ag -1.6 and D2 PAM -31.
